Bead autofluor: counter-screen for toxin protease inhibitors: compound fluorescence; compound autofluorescence counterscreen, microsphere flow cytometry; stronger effect = higher value; fluorescence intensity (test concentration not listed); 360,000 tested, 3.1% active;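 active means at least 3 SD above the mean of all compounds, about 16000 in these data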;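 further: 100 nL of 1 mM stock went into each well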
Sa RN4220 lethal: S. aureus RN4220 growth inhibition. OD600, 16 h. inhibition, % (test concentration not listed). 330,000 tested, 0.33% active;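 active means z-score of -3 or lower and OD600 up to 0.18 on both plates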;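 further: plate controls were untreated cells for no effect and reference antibiotic for full effect; stock transfer was 100 nL into about 80 µL; one replicate is shown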
Sa ugtP lethal: compounds lethal to S. aureus RN4220 ugtP deletion mutant. OD600 growth, 16 h; some inactives read as strong as hits. growth inhibition, % (no concentration beside the values). 330,000 tested, 0.54% active;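 active means z-score under -3 and OD600 up to 0.15 on both plates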;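 further: plate controls were untreated wells for no effect and antibiotic for full effect; wells of about 80 µL received 100 nL stock; the first replicate is given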
BJeLR viability: BJeLR cell viability loss. inhibition, % (test concentration not listed). BJeLR (HRASV12) viability, CellTiter-Glo ATP luminescence, 48 h; reference of the scale not given here. 300,000 tested, 0.17% active. AID 1554;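 active means replicate mean above 50%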;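 further: 50 nL library stock added to about 25 µL; numbers are from one replicate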
PrP UTR inh: inhibition of PrP 5' UTR reporter expression; cell-based PrP 5' UTR mRNA reporter, plate reader; inhibition, % (no concentration beside the values); 340,000 tested, 0.35% active;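 active means every replicate at 50% or more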;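 further: 0 = median of the neutral control wells; tested in H4 reporter cells; numbers are from one replicate; inactives centre near -14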
Mtb hypoxia inh: inhibitors of hypoxia-regulated fluorescent reporter in Mycobacterium tuberculosis. AID 1159583. 300,000 tested, 0.1% active. fluorescence inhibition, % (test concentration not listed). M. tuberculosis hypoxia-regulated fluorescent reporter, fluorescence;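 active means 35 to 45% if threefold the growth effect, above 45% if 1.5-fold the growth effect; inactive means the rest, general growth blockers included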;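 further: wells of about 50 µL received 100 nL stock; 0% = vehicle wells and 100% = reference inhibitor wells; whole bacteria with a GFP reporter of the hypoxia response; strong numbers were not always called active; many hits fall short of the cut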
Mtb hypoxia inh growth: also measured in Mtb hypoxia inh; calls as there; growth inhibition, %; measured here: M. tuberculosis growth (absorbance);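 0% = vehicle and 100% = reference antibiotic; read after six days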
* marks the source's active call; other numbers are inactive results; nt = no result given.

compound	Bead autofluor	BJeLR viability	Mtb hypoxia inh	Sa RN4220 lethal	Mtb hypoxia inh growth	Sa ugtP lethal	PrP UTR inh
CC(C)CC(=O)NC(=S)Nc1ccc(S(=O)(=O)N2CCCC2)cc1	4670	6	6	4.3	12	87*	-12
COC(=O)c1cc(-c2ccc(F)cc2)n(-c2ccccc2)n1	4165	-7	1	4.0	4	8	-7
O=S(=O)(Nc1ccc(-c2nnc(SCc3ccc(Cl)cc3)o2)cc1)c1ccccc1	1903	-6	3	-18	0	-4	-5
Cc1ccc(-c2nn(Cc3ccccc3)cc2/C=C/C(=O)O)cc1C	2968	-7	nt	nt	nt	nt	-10
O=C(Cn1c2ccc(F)cc2c2nc3n(c(=O)c21)CCS3)Nc1ccccc1F	nt	-1	22	-1.4	15	2	nt
O=C(Nc1nnc(-c2ccncc2)o1)c1ccc(Br)s1	3948	2	10	3.0	-1	20	-8
O=C(/C=C1\SC(=O)NC1=O)Nc1ccc(F)cc1	3851	-9	3	-2.0	3	36	-32
Cn1c(SCC(=O)Nc2cccnc2Cl)nc2ccccc21	2852	nt	8	4.8	7	6	-24
COc1ccc(CCNS(=O)(=O)c2cn(C)nc2C)cc1OC	4480	4	6	2.9	-5	9	5
Cc1ccc(C)c(NC(=S)NNC(=O)c2csc(C(C)C)c2)c1	22879*	-5	8	0.8	14	1	-21
CCNc1nc(OC)nc(Oc2ccc(=O)n(-c3ccccc3)n2)n1	3471	5	7	4.4	7	-4	-8
COc1ccccc1/C=N/NC(=O)c1ccc(Cn2nc([N+](=O)[O-])cc2C)cc1	7284	2	nt	nt	nt	nt	-18
Cc1ccc(SCCC(=O)Nc2cccnc2)cc1	5106	4	2	2.0	15	-5	-14
COC(=O)c1cc(C(=O)NCC2CCCCC2)cc([N+](=O)[O-])c1	6011	-3	3	-1.9	11	11	-21
COc1ccc(Cl)cc1NC(=O)/C=C/C(=O)O	4625	10	4	1.1	8	6	-3
O=C(COC(=O)c1ccccc1NC(=O)c1ccco1)NCC1CCCCC1	9732	9	6	-2.2	0	-5	-28
CC1(CCc2ccccc2)NC(=O)N(CC(=O)Nc2c(F)cccc2F)C1=O (configuration not stated)	5959	nt	3	4.5	5	6	-6
CC[C@]12c3[nH]c4ccccc4c3CCN1C(=O)C(CC(=O)NCCN1CCOCC1)C[C@@H]2C(=O)N1CCN(C(=O)c2ccco2)CC1 (some centres not stated)	3663	nt	-1	0.7	6	0	-4
CCCCCNC(=O)c1cn(CC)c2cc(N3CCN(C)CC3)c(F)cc2c1=O	4095	-7	23	-1.8	13	8	-1
Cc1cc(Cl)c(OCCOCCN2CCN(C)CC2)c(Br)c1	4279	-3	5	2.5	3	20	-8
Cc1ccc(C(=O)Nc2nc3n(n2)C(c2ccccc2)CC(=O)N3)cc1 (configuration not stated)	5734	-5	-2	6.8	9	12	nt
CN(C)C(=O)CSc1nnc(-c2ccco2)n1-c1ccccc1	3575	nt	1	-0.7	15	-1	-5
COC(=O)C(Cc1c[nH]c2ccccc12)NC(=O)C1CC1 (configuration not stated)	5134	5	0	5.1	-3	-2	-35
N#CCc1cccnc1Sc1ccc(Cl)cc1	6313	-3	8	4.0	10	3	-16

Compound profiles, from the list above. Values in the order: Bead autofluor, BJeLR viability, Mtb hypoxia inh, Sa RN4220 lethal, Mtb hypoxia inh growth, Sa ugtP lethal, PrP UTR inh
CC1(CCc2ccccc2)NC(=O)N(CC(=O)Nc2c(F)cccc2F)C1=O (configuration not stated) as listed: 5959, nt, 3, 4.5, 5, 6, -6
CCCCCNC(=O)c1cn(CC)c2cc(N3CCN(C)CC3)c(F)cc2c1=O as listed: 4095, -7, 23, -1.8, 13, 8, -1

Later entries:
compound	Bead autofluor	BJeLR viability	Mtb hypoxia inh	Sa RN4220 lethal	Mtb hypoxia inh growth	Sa ugtP lethal	PrP UTR inh
CC1(C)CC(=O)C2=C(C1)N(Cc1ccco1)C(=O)C2(NC(=O)C1CCCCC1)C(F)(F)F (configuration not stated)	4037	8	0	3.4	2	13	-14
O=C(COC(=O)c1ccccn1)NC(=O)c1ccccc1	8831	nt	4	-1.2	2	5	-10
FC(F)(F)c1cc(Cl)c2nnc(C(F)(F)Cl)n2c1	4220	10	8	0.4	11	6	-23
Cc1ccc2[nH]c3c(=O)n(CCN4CCNCC4)cnc3c2c1	6829	-6	4	1.8	-1	4	-15
Cc1ccc(Cn2c(N3CCN(CCO)CC3)nc3c2c(=O)n(C)c(=O)n3C)cc1	4751	-7	-2	2.3	-17	1	-38
Cc1cc2occ(CC(=O)N(C)CC(=O)Nc3c(C)cccc3C)c2cc1C	4128	9	-10	1.7	-3	-9	-9
N#Cc1ccc(C23CC4(C2)[C@H](CN(Cc2ccc(C(F)(F)F)cc2)[C@@H]4c2ccccc2)C3c2ccccc2)cc1 (some centres not stated)	4498	13	nt	nt	nt	nt	-20
Cc1ccc(C)c(SCC(=O)NC(=O)NC2CCCC2)c1	8872	nt	3	0.6	8	0	-12
Cc1cccc(NC(=O)c2cccc(S(=O)(=O)Nc3ccccc3C(=O)O)c2)c1	3303	-16	nt	nt	nt	nt	-18
COc1cccc(NC(=O)CN2CC(c3ccccc3)CC2=O)c1 (configuration not stated)	5638	7	nt	4.2	nt	-10	-27
CC(=NNC(=O)c1ccccc1O)c1cccc(NC(=O)c2ccccc2)c1	nt	nt	0	4.1	0	3	nt
Cn1c2ccccc2c2cc(C=NNC(=O)c3ccccc3F)ccc21	nt	nt	12	2.5	-11	10	nt
CCCn1c(SCC(=O)Nc2cccc(S(=O)(=O)NC3=NCCCCC3)c2)nc2ccccc2c1=O	3677	3	3	2.2	10	5	1
Cc1nc(C(=O)NNC(=O)c2ccc(Cl)cc2)cs1	nt	3	12	2.8	5	1	-36
Cc1cc(NC(=O)Cn2cnc3c2c(=O)n(C)c(=O)n3C)n(-c2ccccc2)n1	2557	-3	7	5.7	0	3	-1
NC(=S)N(c1ccccc1)c1ccccc1	4139	-1	16	-2.0	3	3	-37
Fc1ccccc1C=NNc1ncnc2ccccc12	nt	nt	13	6.5	1	-1	nt
O=C(Nc1ccncc1)c1ccc(NS(=O)(=O)c2ccc3[nH]c(=O)[nH]c3c2)cc1	5858	2	4	-1.5	15	-2	-9
Cc1cccc(-n2c(O)c(C)c(=O)[nH]c2=S)c1	2450	1	9	1.2	5	7	-12
O=C1C2C3C=CC(C2C(=O)N1C1CCCCC1)C1C(=O)N(C2CCCCC2)C(=O)C31 (configuration not stated)	5276	-4	nt	2.2	nt	13	-16
CCN1CCN(C(=O)C(C)Nc2ccc(OC)cc2OC)CC1 (configuration not stated)	3242	16	nt	nt	nt	nt	-16
O=C(Nc1cccc(C(=O)O)c1)/C(=C/c1ccccc1)NC(=O)c1cccc(Br)c1	nt	-4	0	3.7	4	8	-11
CCCCCCC(=O)N/N=C/c1c(O)n(CCCC)c(=S)[nH]c1=O	5504	1	3	3.4	0	-6	-7
O=C(O)c1cccc(NC(=O)c2ccc(Cl)c(S(=O)(=O)N3CCCCCC3)c2)c1	1953	0	4	4.3	2	4	-12
O=C(NCCCN1CCN(c2ccccc2F)CC1)C1CCC(=O)N1C1CCCCC1 (configuration not stated)	6798	-1	-5	-3.0	-5	-8	-16
O=C(CCCO)CCCCCCCCC[C@H]1N[C@H](CO)[C@@H](O)[C@@H]1O	3897	-4	nt	nt	nt	nt	-13
CCC(=O)Nc1ccc(S(=O)(=O)NCC2CCCO2)cc1 (configuration not stated)	8876	-2	11	3.7	-2	14	0
CN(Cc1ccc(Cl)cc1)C(=O)c1ccc(S(=O)(=O)NCc2ccco2)cc1	8722	nt	8	2.7	10	5	3
CCOc1ccc(C(=O)Nc2cccc(-n3cnnn3)c2)cc1OCC	4248	-2	-9	0.0	-7	13	10
Cc1cc2[nH]cnc2c([N+](=O)[O-])c1C	4256	8	12	4.2	4	5	22
CC1CC(CCN)(c2ccccc2)C(C)CN1C (configuration not stated)	4030	0	4	2.7	1	4	-3
Cc1ccc(S(=O)(=O)C(C#N)c2nc3ccccc3nc2OCCO)cc1 (configuration not stated)	2016	5	2	3.9	-2	-1	-7
Cc1onc(-c2ccccc2)c1NC(=O)N(CCC(=O)O)Cc1ccccc1	5748	3	7	-0.9	5	3	nt
N/C(=N\N=C\c1cccs1)SC1CC(=O)N(c2cccc([N+](=O)[O-])c2)C1=O (configuration not stated)	4154	-1	nt	nt	nt	nt	-28
CN(C)S(=O)(=O)c1cccc(NC(=O)CN2C(=O)NC(CCc3ccccc3)C2=O)c1 (configuration not stated)	5116	4	9	-1.3	-5	-10	-13
COc1ccccc1N1CCN(C2=CC(=O)CCC2)CC1	10425	1	10	3.4	5	14	-28
CCOc1ccccc1NS(=O)(=O)c1ccc(OC)c(OC)c1	10563	1	4	5.4	3	-6	-12
COc1ccc(NCCc2ccccn2)cc1	4083	-25	9	0.1	2	-1	-25
O=C(Nc1ccc(C(=O)N2CCCCC2)cc1)Nc1cccc(Cl)c1	6205	-18	7	-1.4	2	-4	-46
Cc1ccc(C)n1CCN1CCN(C(=O)c2ccc(Cl)cc2)CC1	4911	-7	9	-1.4	4	-1	-24
CCN(C(=O)CCN1C(=O)S/C(=C\c2ccccc2)C1=O)C1CCS(=O)(=O)C1 (configuration not stated)	4853	10	5	2.8	-2	4	-6
CC(=O)c1cccc(NS(=O)(=O)c2ccc(-c3cnc(C4CC4)o3)cc2)c1	5222	31	-7	5.1	1	2	-42
CCN(CC)CCN(C(=O)c1ccc(N2C(=O)CCC2=O)cc1)c1nc2cc3c(cc2s1)OCO3	nt	-7	3	3.7	1	4	nt
C[C@@H](NC(=O)[C@@H]1Cc2ccccc2CN1)C(=O)NC1CCCCC1	6328	-10	6	3.3	6	2	-17
Cn1nnc2cc(NC(=O)Nc3cccc(C(F)(F)F)c3)ccc21	3756	-2	-3	0.2	-6	-1	-5
Cc1ccc(C)n1-c1ccc(C(=O)NCc2ccncc2)cc1	4989	-3	7	3.4	4	2	-5
O=C1CC(=O)N(c2cccc(Cl)c2)C(=O)N1	4352	-17	1	-0.4	-8	4	-9
COc1ccc(NC(=S)N2C3CCC2CC(NC(=O)NC24CC5CC(CC(C5)C2)C4)C3)c(OC)c1 (configuration not stated)	11337	1	-3	2.7	11	-1	-25
Cc1ccc2ncccc2c1N	3314	-6	7	2.2	-1	7	-8
Cc1ccc(-n2c(-c3ccncc3)n[nH]c2=S)cc1C	3432	10	-7	3.2	5	0	-14
COc1cc(NC(=O)COC(=O)c2nc3nc(C)cc(C)n3n2)cc(OC)c1	8471	-3	1	5.4	-2	18	-2
Cc1c(C(=O)NC(c2ccccn2)C(F)(F)F)oc2c(F)cccc12 (configuration not stated)	4951	11	10	1.9	6	10	-16
O=C(CNc1ccccc1)NN=Cc1cc([N+](=O)[O-])ccc1N1CCCC1	nt	nt	2	2.2	7	4	nt
O=C(COC(=O)c1cccnc1Cl)Nc1ccc2c(c1)OCO2	4495	6	9	-1.0	2	5	-13
CC(C)Oc1cccc(C(=O)C2CCCN(S(=O)(=O)C(C)C)C2)c1 (configuration not stated)	4305	-2	12	3.4	4	6	-5
COc1cc(CCC(=O)OCC(=O)Nc2ccc(Br)cc2F)cc(OC)c1OC	2903	-9	-8	5.0	15	-3	0
COc1cccc2cc(C(=O)C3=C(O)C(=O)N(Cc4ccco4)C3c3cccnc3)oc12 (configuration not stated)	4113	-5	3	4.0	-3	-3	-17
O=C(c1cccc(Cl)c1)c1nn(-c2ccccc2)c(=O)cc1C(F)(F)F	2627	10	nt	32	nt	70	-11
CCn1c(-c2ccc([N+](=O)[O-])cc2)n[nH]c1=S	6992	-3	-1	3.9	7	3	-9
CCOC(=O)Cc1nnc(NC(=O)COc2ccc(F)cc2)s1	5559	-17	2	3.5	9	0	-14
CCOc1ccc(S(=O)(=O)N(C)CC(=O)NCc2ccco2)cc1	3626	0	-2	1.5	3	2	-8
CCCCNC(=O)c1cc2c(=O)n3cccc(C)c3nc2n(Cc2ccccc2)c1=N	10058	-3	2	2.7	11	4	-6
